# A3G deaminase = APOBEC3G (human) deaminase inhibition | recombinant A3G, ssDNA deamination FAM/TAMRA fluorescence | hit rate 0.28% among 330,000 | AID 493012 | inhibition, % at 20 µM;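 active = inhibition of at least 40% at 20 µM, with no more than 30% in the related APOBEC3A deaminase screen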;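 also: plate controls were DMSO wells with A3G for no effect and wells lacking A3G enzyme for full effect; some compounds called inactive have numbers as strong as hits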
# Target sequence (Q9HC16 whole entry, looked up): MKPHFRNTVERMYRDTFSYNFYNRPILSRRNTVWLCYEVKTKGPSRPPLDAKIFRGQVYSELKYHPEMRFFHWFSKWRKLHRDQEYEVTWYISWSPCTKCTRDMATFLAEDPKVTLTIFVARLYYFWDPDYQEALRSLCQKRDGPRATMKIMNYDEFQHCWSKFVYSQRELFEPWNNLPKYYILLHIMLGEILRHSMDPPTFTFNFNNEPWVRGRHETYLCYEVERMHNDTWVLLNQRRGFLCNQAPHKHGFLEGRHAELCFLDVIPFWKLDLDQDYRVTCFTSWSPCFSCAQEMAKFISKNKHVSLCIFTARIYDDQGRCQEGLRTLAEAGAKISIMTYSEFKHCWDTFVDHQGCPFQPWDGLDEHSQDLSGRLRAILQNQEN
# UBC13 inh = blocks human UBC13 polyubiquitin chain formation; inhibition, % at 20 µM; TR-FRET; P61088; hit rate 0.47% among 330,000; in the data active = inhibition above about 45%, passing the limit was not always enough
# Target sequence (P61088 whole entry, looked up): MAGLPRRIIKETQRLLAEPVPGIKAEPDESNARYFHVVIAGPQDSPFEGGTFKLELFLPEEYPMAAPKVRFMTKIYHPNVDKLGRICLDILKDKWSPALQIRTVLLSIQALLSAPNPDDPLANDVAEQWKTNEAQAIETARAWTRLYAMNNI
# SENP8 inh = blocks human SENP8 cleavage of Nedd8 substrate; Q96LD8; recombinant SENP8, Nedd8 substrate fluorescence; AID 602440; hit rate 0.64% among 360,000; inhibition, % at 20 µM; in the data active = inhibition mostly above about 40%, no sharp cut-off; inactive = mostly below about 27%
# Target sequence (Q96LD8 whole entry, looked up): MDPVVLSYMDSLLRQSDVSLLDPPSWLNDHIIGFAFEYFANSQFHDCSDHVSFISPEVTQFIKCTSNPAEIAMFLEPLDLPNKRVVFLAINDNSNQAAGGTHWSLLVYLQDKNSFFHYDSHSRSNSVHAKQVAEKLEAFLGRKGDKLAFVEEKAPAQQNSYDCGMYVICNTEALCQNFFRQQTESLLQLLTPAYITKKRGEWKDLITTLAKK
# SENP1 FRET inh = blocks the human SENP1 SUMO protease catalytic domain. hit rate 0.21% among 360,000. inhibition, % at 10 µM. Q9P0U3. AID 624204. recombinant SENP1 catalytic domain, CyPet-SUMO1-YPet FRET cleavage;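 active = inhibition at least 30% at 10 µM, raw YFP signal under a set limit, fluorescence ratio 0.5 to 1.5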;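 also: 0% = enzyme with DMSO and 100% = no enzyme wells; some results filed as inactive read as strong as hits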
# Target sequence (Q9P0U3 419-644 limits assumed): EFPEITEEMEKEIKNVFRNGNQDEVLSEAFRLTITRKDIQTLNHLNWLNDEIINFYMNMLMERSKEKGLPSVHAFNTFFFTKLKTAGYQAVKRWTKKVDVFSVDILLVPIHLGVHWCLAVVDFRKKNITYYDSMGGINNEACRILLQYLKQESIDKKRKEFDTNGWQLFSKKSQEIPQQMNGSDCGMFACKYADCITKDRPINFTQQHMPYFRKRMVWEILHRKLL
#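 System: Recombinant human SENP1 catalytic domain, His6-tagged | Incubation: Enzyme reaction for 50 min at room temperature, dark | Medium: Tris pH 8 with BME, BSA, NP40 and catalase | Also added: 25 nM SUMO1 FRET substrate | Compound: 10 µM single point, 0.5% DMSO | Measured by: FRET fluorescence in CFP and YFP emission channels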
# Apaf1 inhib = human Apaf-1 inhibition | O14727 | reconstituted apoptosome caspase-3 activity, DEVD-Rh110 fluorescence | inhibition, % at 20 µM | hit rate 0.71% among 330,000; active = inhibition of at least 40% at 20 µM;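 also: plate controls were DMSO wells for no effect and DEVD-CHO caspase inhibitor wells for full effect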
#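 Medium: Hepes buffer, pH 7.5 / System: biochemical Apaf-1 apoptosome reconstitution / Measured by: Rh110 fluorescence, excitation 480 nm, emission 540 nm / Times: compound with Apaf-1, dATP, procaspase-3 30 min, then 50 min reaction, room temperature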
# * hit, by the source's call; i = inactive; . = not tested or not shown.
[1] Nc1ccccc1Oc1ncc(C(F)(F)F)cc1Cl
[2] COC(=O)c1sccc1NC(=O)CCC1CCCCC1
[3] O=C(CNC(c1ccccc1)c1ccccc1)Nc1ccccc1-c1ccccc1
[4] CC1CCN(C(=O)CCNC(=O)Cn2cnc3sc4c(c3c2=O)CCCC4)CC1
[5] CCN1CCCC1CNS(=O)(=O)c1cccc(C(F)(F)F)c1 (configuration not stated)
[6] CCOC(=O)c1cccc(-n2cccc2/C=C2\NC(=O)N(CC(=O)O)C2=O)c1
[7] Cc1ccc(S(=O)(=O)NCc2ccc(C(=O)N3CCN(c4ccccc4)CC3)cc2)cc1
[8] CCOC(=O)C1CCN(C(=O)c2ccc(CNS(=O)(=O)c3ccc(OC)cc3)cc2)CC1
entry no.	1	2	3	4	5	6	7	8
A3G deaminase	-0.2	0.2	0.4	-3.8	10.3	-1.6	-0.8	-7.1
UBC13 inh	-0.6	8.2	1.3	9.4	-5.4	-14.9	-2.5	-0.9
SENP8 inh	10.7	14.1	11.5	2.3	8.8	-80.4	2.4	3.7
SENP1 FRET inh	0.2	-1.4	0.1	-2.2	-0.5	-2.5	2.8	1.6
Apaf1 inhib	-22.1	15.4	19.5	1.7	2.8	12.2	16.3	-2.4

[9] COc1ccc(NC(=O)c2ccccc2NS(=O)(=O)c2ccc(C)cc2)c([N+](=O)[O-])c1
[10] O=[N+]([O-])c1c(NCCO)cc(N2CCC3(CC2)OCCO3)c2nonc12
[11] O=C(CSc1nnc2c(Cl)cc(C(F)(F)F)cn12)NCc1ccc(F)cc1
[12] COC(=O)C1=NN(c2ccc(C)cc2)C2C(=O)N(c3ccccc3OC)C(=O)C12 (configuration not stated)
[13] COC(=O)c1ccc2c(c1)C(=O)N(C1CCCCC1)C2=O
[14] C=CCn1c(CCNC(=O)c2ccccc2F)nnc1SCC(=O)Nc1nc(C)cs1
[15] COc1ccc2cc(C#N)c(N3CCOCC3)nc2c1
[16] CCn1c(Cc2ccccc2)nnc1SCC(=O)Nc1ccc(C)cc1
entry no.	9	10	11	12	13	14	15	16
A3G deaminase	-4.5	-6.0	0.0	-2.8	-4.1	-6.7	-2.0	-3.2
UBC13 inh	-10.6	-22.7	-2.0	2.9	2.5	-6.3	12.6	-4.1
SENP8 inh	18.4	21.3	-268.0	-435.6	18.0	22.6	i	7.7
SENP1 FRET inh	0.5	-33.8	-42.2	-12.4	-0.3	-1.1	-33.9	2.3
Apaf1 inhib	6.3	-8.1	7.8	-6.1	8.8	-10.2	1.3	2.4

# Four neighbouring entries from above:
[12] COC(=O)C1=NN(c2ccc(C)cc2)C2C(=O)N(c3ccccc3OC)C(=O)C12 (configuration not stated)
[13] COC(=O)c1ccc2c(c1)C(=O)N(C1CCCCC1)C2=O
[14] C=CCn1c(CCNC(=O)c2ccccc2F)nnc1SCC(=O)Nc1nc(C)cs1
[15] COc1ccc2cc(C#N)c(N3CCOCC3)nc2c1
entry no.	12	13	14	15
A3G deaminase	-2.8	-4.1	-6.7	-2.0
UBC13 inh	2.9	2.5	-6.3	12.6
SENP8 inh	-435.6	18.0	22.6	i
SENP1 FRET inh	-12.4	-0.3	-1.1	-33.9
Apaf1 inhib	-6.1	8.8	-10.2	1.3

# Continued:
[17] COc1ccc(N/N=C(/C(N)=O)C2=NC(C)(C)Cc3ccccc32)cc1
[18] Cc1ccc2cc(C#N)c(NCCNC(=S)NCCCN3CCOCC3)nc2c1
[19] COc1cccc2sc(NNC(=O)C3=COCCO3)nc12
[20] O=C1Nc2cc(C(=O)N3CCN(c4ccccn4)CC3)ccc2S/C1=C\c1ccccc1
[21] O=[N+]([O-])c1c(NCCO)cc(N2CCCCCC2)c2nonc12
[22] CCc1ccc(C2C(C(=O)O)c3ccccc3C(=O)N2C)cc1 (configuration not stated)
[23] Cc1ccc(NC(=O)c2ccc([N+](=O)[O-])s2)cc1S(=O)(=O)N1CCOCC1
[24] C=CCn1c(CCNC(=O)c2ccccc2F)nnc1SCC(=O)Nc1nc2ccccc2s1
entry no.	17	18	19	20	21	22	23	24
A3G deaminase	-1.5	-5.9	-9.6	-5.6	-2.1	-7.4	-0.6	-0.4
UBC13 inh	-12.7	8.8	-6.9	-2.3	-29.4	-1.4	-7.0	13.3
SENP8 inh	22.1	-348.2	34.7	-17.4	9.9	9.9	24.4	7.3
SENP1 FRET inh	0.3	-48.4	-20.0	-3.7	-27.9	0.5	-0.3	-3.1
Apaf1 inhib	18.6	-2.9	8.7	32.1	9.3	-21.5	-3.4	4.8

[25] O=C1CCC/C(=N/NC(=O)c2ccc(NS(=O)(=O)c3cccs3)cc2)C1
[26] Cc1c(CCO)c(=O)n(C)n1C(=O)c1ccc(F)cc1
[27] Cc1c(CCO)c(=O)n(C)n1C(=O)c1ccc(Cl)cc1
[28] CN(Cc1ccccc1)C(=O)c1ccc2c(c1)OCO2
[29] CCOC(=O)N1CCN(c2cc(NCCO)c([N+](=O)[O-])c3nonc23)CC1
[30] Cc1cc(NC(=O)c2ccc3c(c2)C(=O)N(C2CCCCC2)C3=O)no1
[31] Nc1cc(=O)nc(SCC(=O)N2CCN(c3ccccc3)CC2)n1-c1ccc(F)cc1
[32] Cc1cccc(-c2nc3c(c(SCC(=O)N4CCCC4)n2)COC(C)(C)C3)c1
entry no.	25	26	27	28	29	30	31	32
A3G deaminase	-10.7	-4.3	-9.9	-3.8	-11.9	-4.6	-2.1	5.6
UBC13 inh	0.7	-4.7	-9.4	3.5	-28.0	5.1	4.0	-2.2
SENP8 inh	-1.0	15.9	3.0	-0.7	29.1	6.0	5.5	13.5
SENP1 FRET inh	-9.1	-0.8	-1.1	0.5	-32.3	1.5	1.1	2.2
Apaf1 inhib	-8.2	4.1	-1.9	-4.1	-11.1	-0.5	-6.1	17.4

[33] Cc1nn(-c2ccccc2)c2[nH]c(=O)c(CNCc3ccc4c(c3)OCO4)cc12
[34] CCOC(=O)C1CCN(C(=O)c2ccc(CNS(=O)(=O)c3ccc(C)cc3)cc2)CC1
[35] CCOC(=O)CN1C(=O)SC(Nc2ccc(C)cc2)C1=O (configuration not stated)
[36] COCCNC(=O)C1(S(=O)(=O)c2ccccc2)CC=CC1
[37] COc1ccc(/C=C/C(=O)NC(=S)N2CCSCC2)cc1
[38] C/C(=N/NC(=O)CNC(=O)c1cccnc1)c1ccc([N+](=O)[O-])cc1
[39] CC(C)(C)N(Cc1ccccc1)C(=O)c1ccc2c(c1)OCCO2
[40] CN1C(=O)c2ccc(C(=O)NC3CCCCC3)cc2C1=O
entry no.	33	34	35	36	37	38	39	40
A3G deaminase	-3.3	-0.8	-0.5	-7.5	-8.2	-3.7	-6.4	-6.1
UBC13 inh	-2.8	-9.4	-6.2	-16.2	4.3	-11.0	1.4	-4.8
SENP8 inh	-32.1	3.1	13.1	7.0	4.4	13.4	11.9	35.4
SENP1 FRET inh	1.0	0.4	4.1	1.8	-0.7	-1.4	3.0	-1.8
Apaf1 inhib	12.5	1.7	7.9	1.0	2.6	-10.2	7.7	2.0

[41] COc1ccccc1NC(=O)C1=C(C)Nc2nnnn2C1c1ccncc1 (configuration not stated)
[42] O=C(CNC(=O)Cn1cnc2sc3c(c2c1=O)CCCC3)NCc1ccccn1
[43] COc1cc(OC)c(/C=N/n2c(C)nnc2C)c(OC)c1
[44] COc1ccc(/C=C2\Sc3ccc(C(=O)N4CCc5ccccc5C4)cc3N(C)C2=O)cc1
[45] COc1ccccc1Nc1nc(C)cc(C)c1C(N)=O
[46] CCOc1ccccc1OCCNC1CCCC1
[47] CCn1c(CNc2ccc(C)cc2)nnc1SCC(N)=O
[48] O=C(/C=C/c1cccc([N+](=O)[O-])c1)N1CCOCC1
entry no.	41	42	43	44	45	46	47	48
A3G deaminase	-1.4	-6.9	1.1	0.7	0.0	-6.4	-0.6	-4.5
UBC13 inh	4.5	-2.4	3.1	4.3	-6.3	3.1	-9.9	2.3
SENP8 inh	10.4	13.8	-29.9	.	39.0	0.8	23.0	17.2
SENP1 FRET inh	-0.7	1.7	2.4	.	0.2	-1.2	-1.3	3.5
Apaf1 inhib	-1.9	0.3	2.8	11.4	5.4	-11.9	7.8	0.4

[49] CC1=C(C(=O)Nc2cccnc2)C(c2ccccn2)n2nnnc2N1 (configuration not stated)
[50] O=C(N/N=C/c1ccncc1)c1ccc(NS(=O)(=O)c2cccs2)cc1
[51] Cc1cc(C(=O)COC(=O)c2nccnc2N)c(C)n1C
[52] NC(=O)c1cc(NC(=O)c2ccc(NS(=O)(=O)c3cccs3)cc2)cc(C(N)=O)c1
[53] COCCN(CCOC)C(=O)c1ccc(CSc2nc3ccccc3s2)cc1
[54] O=C(Nc1ccc(F)cc1)c1cc(S(=O)(=O)N2CCOCC2)cs1
[55] COc1ccc(C(=O)N/N=C/c2ccc(OC(=O)c3cccc4ccccc34)c([N+](=O)[O-])c2)cc1
[56] COC(=O)c1ccc(-c2cc3onc(-c4ccccc4)c3c(=O)n2C)cc1
entry no.	49	50	51	52	53	54	55	56
A3G deaminase	-8.4	0.0	3.0	-5.0	-1.0	-1.2	0.9	-10.4
UBC13 inh	-6.3	-6.5	0.1	3.2	-4.8	6.5	-40.0	11.2
SENP8 inh	14.0	15.4	-359.6	11.4	0.9	6.0	23.6	-151.3
SENP1 FRET inh	0.3	0.0	-3.7	1.2	-0.6	1.3	1.9	-4.3
Apaf1 inhib	5.5	5.5	-1.4	-7.9	3.2	0.9	9.2	22.0

[57] CCOc1cc(S(=O)(=O)NCc2ccc3c(c2)OCO3)c(C)cc1C
[58] C=CCn1c(CCNC(=O)c2cccs2)nnc1SCC(=O)Nc1cccc(C(C)=O)c1
[59] c1ccc(-c2cc3ncccc3cn2)cc1
[60] CC(C)(C)c1ccc(S(=O)(=O)NCc2ccc(C(=O)N3CCOCC3)cc2)cc1
[61] C/C(=N\NC(=O)c1ccc(NS(=O)(=O)c2cccs2)cc1)c1ccccc1
[62] COc1ccc(OC)c(NC(=O)CNC(c2ccccc2)c2ccccc2)c1
[63] Cc1ccccc1CNC(=O)Cn1cnc(S(=O)(=O)N2CCCC2)c1
[64] C/C(=N/NC(=O)Cc1cc(=O)[nH][nH]1)c1ccc([N+](=O)[O-])cc1
entry no.	57	58	59	60	61	62	63	64
A3G deaminase	2.1	-4.4	-8.9	-6.4	5.4	-1.9	1.0	-7.0
UBC13 inh	1.5	-3.7	0.2	-5.5	-2.8	6.5	-0.6	-4.6
SENP8 inh	19.3	11.1	-36.7	16.3	-1.7	22.9	-0.8	20.6
SENP1 FRET inh	2.1	-1.0	1.1	1.5	0.2	-1.0	1.1	-0.6
Apaf1 inhib	11.1	8.4	-8.3	5.4	7.5	24.3	2.1	54.9*

[65] CCn1c(COc2ccc(Cl)cc2)nnc1SCC(=O)Nc1ccc2c(c1)OCCO2
[66] COc1ccc(-c2cc3ccccc3oc2=O)cc1NC(=O)c1ccc([N+](=O)[O-])o1
[67] CC(C)c1nc2n[nH]c(N)c2c2c1CCC2
[68] COC(=O)c1sccc1NC(=S)N(C)C1CCCCC1
[69] N#CC(c1cccc(C(F)(F)F)c1)(c1ncc(C(F)(F)F)cc1Cl)N1CCOCC1 (configuration not stated)
[70] CC(=O)Nc1cccc(/C(C)=N/NC(=O)c2ccc(NS(=O)(=O)c3cccs3)cc2)c1
[71] COc1ccc(-c2cn3ccccc3n2)cc1[N+](=O)[O-]
[72] COc1cc(C)c(Cl)c(C)c1S(=O)(=O)NCc1ccc2c(c1)OCO2
entry no.	65	66	67	68	69	70	71	72
A3G deaminase	-3.1	-6.5	-0.4	-0.7	3.4	-2.4	-10.2	-2.4
UBC13 inh	-9.9	-17.7	-1.4	20.8	-4.3	-12.5	-3.7	8.7
SENP8 inh	9.3	-33.8	-18.2	9.3	9.2	-1.7	-0.2	37.5
SENP1 FRET inh	1.0	1.2	-1.7	0.8	1.8	2.8	1.2	-0.4
Apaf1 inhib	7.1	-21.1	-2.8	-1.9	16.7	-2.9	-7.9	8.2

[73] C/C(=N/OCO/N=C(\C)c1ccccc1)c1ccccc1
[74] COc1ccc(NC(=O)Nc2ccncc2)c(OC)c1
[75] Cc1ccc(-c2[nH]n3c(=O)c4c(nc3c2C)CCCC4)cc1
[76] O=C(CSc1nnc(-c2ccco2)n1Cc1ccccc1)NC(=O)NCc1ccccc1
entry no.	73	74	75	76
A3G deaminase	-4.6	-1.6	-0.5	-7.5
UBC13 inh	7.8	1.1	10.7	-3.5
SENP8 inh	18.9	11.3	-227.2	20.1
SENP1 FRET inh	2.7	2.7	3.2	-0.4
Apaf1 inhib	-2.7	5.2	1.5	26.4

# Screens: PubChem BioAssay, Sanford-Burnham Center for Chemical Genomics

# The list is partial, so the mix of outcomes need not match the whole.
